Screening results (PubChem)
Vaccinia inh – blocks a specific stage of Vaccinia orthopoxvirus infection, primary screen, cell-based, single point; Vaccinia-infected cells, mCherry/Venus stage reporter fluorescence; active compounds read low; some inactives read as strong as hits; hit rate 0.01% among 89,000; activity change (mCherry), % (test concentration not listed); AID 1053133, 2014;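 active = mCherry past -33% and 40 or more points under the early reporter, replicates agreeing; inconclusive = past -33% without that gap or agreement; tested in A549 cells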;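 note: scaled between vehicle wells and reference inhibitor wells; 23 nL library stock went into each well; one replicate is shown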
Vaccinia inh Venus – second read-out of Vaccinia inh, no call of its own (marks repeat the call); activity change (Venus), %; measured here: Venus reporter, other viral stage;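 negative = less Venus signal; first of two replicates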
* hit, by the source's call; ? = inconclusive; · = not tested or not shown. Some of the compounds tested. The share of hits here may be higher or lower than overall.

SMILES,Vaccinia inh Venus,Vaccinia inh
COc1ccc(S(=O)(=O)N(C)C[C@@H]2Oc3c(NC(=O)NC(C)C)cccc3C(=O)N([C@@H](C)CO)C[C@H]2C)cc1,1.5,0.5
C[C@H](CO)N1C[C@H](C)[C@H](CN(C)Cc2ccc3c(c2)OCO3)Oc2cc(-c3cccc(C(=O)N(C)C)c3)ccc2S1(=O)=O,-2.3,-9.0
N#C[C@H]1[C@@H](c2ccccc2-c2ccc(F)cc2)[C@H](CO)N1C(=O)Cc1cccnc1,4.8,12.9
Cc1ccc(S[C@]2(C(=O)NC(C)C)CC(=O)N(C3CCCCC3)[C@@H]2c2ccc(CO)cc2I)cc1,·,?
C[C@H](CO)N1C[C@H](C)[C@H](CN(C)C)Oc2cc(-c3cccc(F)c3)ccc2S1(=O)=O,-11.8,-8.5
O=C(CN1CCOCC1)N[C@H]1CC[C@@H](CCn2cc(C3CC3)nn2)O[C@@H]1CO,-2.6,-0.5
Cc1ccccc1S(=O)(=O)N[C@H]1CC[C@H](CCNS(=O)(=O)c2cccc(F)c2)O[C@H]1CO,9.0,11.9
C[C@H](CO)N1C[C@H](C)[C@H](CN(C)C(=O)CN(C)C)Oc2cc(C#CCC3CCCC3)ccc2S1(=O)=O,·,?
Cc1noc(C)c1NC(=O)Nc1cccc2c1O[C@@H](CN(C)S(C)(=O)=O)[C@@H](C)CN([C@@H](C)CO)C2=O,-13.9,-26.6
O=C(Nc1ccccc1F)N1C[C@@H]2[C@H](c3ccccc31)[C@@H](CO)N2C(=O)Nc1ccccc1,5.2,-6.2
CCC(=O)Nc1ccc2c(c1)C(=O)N(C)C[C@@H](OC)[C@H](C)CN(C(C)=O)[C@H](C)CO2,4.8,-6.6
Cc1ccc(OC(=O)N(C)C[C@H]2OCc3ccccc3-c3ccccc3C(=O)N([C@H](C)CO)C[C@H]2C)cc1,-11.1,-14.5
C[C@H](CO)N1C[C@H](C)[C@@H](CN(C)C(=O)c2ccc(F)cc2)Oc2ncc(/C=C/c3ccccc3)cc2C1=O,·,?
COc1ccc2c3c([nH]c2c1)[C@@H](CO)N(C(C)=O)CC31CN(C(C)=O)C1,0.7,6.0
COC(=O)[C@H]1[C@H](CO)[C@H]2Cn3c(ccc(-c4cccnc4)c3=O)[C@H]2N1Cc1ccccc1F,21.3,5.6
C[C@H](CO)N1C[C@H](C)[C@@H](CN(C)C(=O)C2CCCCC2)Oc2ncc(-c3cccc(C#N)c3)cc2C1=O,7.4,3.2
CCCNC(=O)N(C)C[C@H]1Oc2cc(C#Cc3cccc(F)c3)ccc2S(=O)(=O)N([C@@H](C)CO)C[C@@H]1C,·,?
C[C@@H]1CN([C@H](C)CO)C(=O)c2cc(NS(=O)(=O)c3ccc(Cl)cc3)ccc2O[C@@H]1CN(C)C(=O)NC1CCCCC1,-12.5,-15.3
CCCNC(=O)N(C)C[C@H]1Oc2cc(-c3ccccc3)ccc2S(=O)(=O)N([C@H](C)CO)C[C@H]1C,-15.9,-7.7
CN1CCN(C(=O)C[C@H]2CC[C@H]3[C@@H](COC[C@@H](O)CN3Cc3cccc(Cl)c3)O2)CC1,-9.7,-5.0
C[C@@H]1CN([C@@H](C)CO)C(=O)c2cc(NC(=O)Nc3ccc(F)cc3)ccc2O[C@@H]1CN(C)S(=O)(=O)c1ccc(F)cc1,-21.2,-30.7
O=C(c1cccnc1)N1CC2(C1)[C@H](c1ccccc1)[C@H](CO)N2CC1CC1,-0.8,2.2
CN1[C@@H]2c3ccc(-c4ccccc4F)c(=O)n3C[C@@H]2[C@@H](CO)[C@@H]1C(=O)Nc1nccs1,4.8,21.2
CO[C@H]1CN(C)C(=O)c2cc(NC(C)=O)ccc2OC[C@@H](C)N(S(C)(=O)=O)C[C@@H]1C,5.6,10.5
C[C@H](CO)N1C[C@H](C)[C@@H](CN(C)Cc2ccc(Cl)c(Cl)c2)Oc2ccc(NC(=O)c3ccncc3)cc2C1=O,-14.2,-12.6
COc1ccc(NC(=O)N(C)C[C@H]2Oc3c(NC(=O)CCCCCC(=O)Nc4ccccc4N)cccc3C(=O)N([C@@H](C)CO)C[C@H]2C)cc1,12.4,15.3
C[C@@H]1CCCCO[C@H](CN(C)S(=O)(=O)c2cn(C)cn2)[C@@H](C)CN([C@@H](C)CO)C(=O)c2cc(NC(=O)CCCN(C)C)ccc2O1,1.9,8.4
CC=Cc1ccc2n(c1=O)C[C@@H]1[C@@H](CO)[C@H](C(=O)N(C)C)N(CCC)[C@H]21 (mixture of isomers),9.3,7.8
C[C@@H]1CN([C@H](C)CO)C(=O)Cc2cc(NC(=O)Nc3ccccc3)ccc2O[C@@H]1CN(C)C,1.9,10.0
C[C@H](CO)N1C[C@H](C)[C@H](CN(C)C(=O)C2CCC2)Oc2cc(C#C[C@@H](C)O)ccc2S1(=O)=O,12.2,9.3
Cc1noc(C)c1S(=O)(=O)Nc1ccc2c(c1)C(=O)N([C@H](C)CO)C[C@@H](C)[C@H](CN(C)Cc1ccc(C(F)(F)F)cc1)OCCCC[C@H](C)O2,·,?
C[C@H](CO)N1C[C@H](C)[C@@H](CN(C)Cc2ccc(C(=O)Nc3ccccc3N)cc2)Oc2c(NC(=O)Nc3ccc4c(c3)OCO4)cccc2C1=O,0.0,4.9
CO[C@@H]1CC[C@H]2CCN(C)C(=O)[C@@H](C)N(C)C(=O)c3cccc(C#N)c3OC[C@H]1O2,3.5,9.0
CCS(=O)(=O)Nc1ccc2c(c1)C(=O)N(C)C[C@H](OC)[C@H](C)CN(C(=O)NC(C)C)[C@@H](C)CO2,16.1,19.6
C/C=C/c1ccc2c(c1)O[C@H](CN(C)C(=O)C1CCCCC1)[C@H](C)CN([C@H](C)CO)S2(=O)=O,-7.0,-16.1
O=C(C[C@@H]1CC[C@@H]2[C@H](COC[C@@H](O)CN2C(=O)c2cnccn2)O1)NCc1ccc(Cl)cc1,6.2,4.4
CCCN(C)C[C@@H]1Oc2cc(C#CCN(C)C)ccc2S(=O)(=O)N([C@H](C)CO)C[C@@H]1C,6.8,8.5
Cc1cc(C(=O)Nc2cccc3c2O[C@H](CN(C)C(=O)NC(C)C)[C@@H](C)CN([C@H](C)CO)C3=O)n(C)n1,6.2,22.6
COC(=O)[C@@H]1[C@@H](CO)[C@@H]2Cn3c(ccc(C4=CCCCC4)c3=O)[C@H]1N2CC1CCCC1,-16.9,-15.7
C[C@@H]1CN([C@H](C)CO)C(=O)Cc2cc(N(C)C)ccc2O[C@H]1CN(C)S(=O)(=O)c1ccc(Cl)cc1,6.5,6.2
Cc1noc(C)c1NC(=O)N(C)C[C@@H]1Oc2ccc(NS(=O)(=O)c3cn(C)cn3)cc2CC(=O)N([C@@H](C)CO)C[C@H]1C,11.0,7.7
C[C@H]1CN([C@@H](C)CO)C(=O)CCCn2nncc2CO[C@@H]1CN(C)C(=O)Nc1ccc(-c2cccs2)cc1,-4.6,-22.6
O=C(c1cccc(F)c1)N1C[C@H]2[C@@H](c3ccccc31)[C@H](CO)N2C(=O)C1CCCCC1,6.1,5.0
CO[C@H]1CN(C)C(=O)c2ccc(NC(C)=O)cc2OC[C@@H](C)N(C(=O)Cc2ccccn2)C[C@@H]1C,6.7,6.4
COc1ccc(S(=O)(=O)N(C)C[C@H]2Oc3c(NC(=O)c4ccc(-c5nccs5)cc4)cccc3C(=O)N([C@H](C)CO)C[C@@H]2C)cc1,15.1,20.9
COc1ccc2c3c(n(C)c2c1)[C@H](CO)N(CC1CCCCC1)CC31CCN(C(=O)CN(C)C)CC1,-20.7,-18.9
C[C@H](CO)N1C[C@H](C)[C@@H](CN(C)CC2CC2)Oc2ccc(NS(=O)(=O)c3cn(C)cn3)cc2CC1=O,3.3,7.0
CN1C(=O)c2cc(NC(=O)Cc3cccs3)ccc2OC[C@@H]2O[C@@H](CC(=O)N[C@@H]3CCN(Cc4ccccc4)C3)CC[C@@H]21,2.5,-0.3
C[C@H](CO)N1C[C@H](C)[C@@H](CN(C)C(=O)C2CCCCC2)Oc2cc(-c3ccccc3)ccc2S1(=O)=O,·,?
C[C@@H]1CN([C@H](C)CO)C(=O)c2cc(NC(=O)CCN3CCOCC3)ccc2O[C@H]1CN(C)Cc1ccc2c(c1)OCO2,-10.8,-4.1
C[C@H]1CN([C@@H](C)CO)C(=O)CCCn2nncc2CO[C@H]1CN(C)C(=O)OCc1ccccc1,9.4,-0.9
COc1ccc(NC(=O)Nc2ccc3c(c2)C(=O)N([C@H](C)CO)C[C@H](C)[C@@H](CN(C)C(=O)Nc2ccc4c(c2)OCO4)O3)cc1,12.0,19.9
C[C@@H]1CN([C@@H](C)CO)C(=O)c2ccccc2-c2ccccc2CO[C@H]1CN(C)S(C)(=O)=O,10.3,14.7
O=C(Nc1ccccc1)N1CCCCN2[C@H](CO)[C@@H](c3ccc(C#Cc4ccccc4)cc3)[C@@H]2C1,·,?
COc1ccc(CN(C)C[C@H]2Oc3ccc(NC(=O)C4CC4)cc3CC(=O)N([C@H](C)CO)C[C@@H]2C)cc1,3.2,6.0
C[C@@H]1CN([C@@H](C)CO)C(=O)c2cccc(N(C)C)c2O[C@H]1CN(C)S(=O)(=O)c1ccc(Cl)cc1,-22.0,-14.9
O=C(O)C[C@H]1C[C@@H]2c3cc(NC(=O)NC4CCCCC4)ccc3O[C@@H]2[C@@H](CO)O1,8.0,10.4
CN1C[C@H]2[C@@H](c3ccccc31)[C@@H](CO)N2C(=O)c1ccccn1,-0.3,3.7
C[C@@H]1CN([C@H](C)CO)C(=O)c2cccc(NS(=O)(=O)c3ccccc3)c2O[C@H]1CN(C)S(=O)(=O)c1ccccc1,10.3,19.6
COc1ccc(NC(=O)Nc2ccc3c(c2)CC(=O)N([C@@H](C)CO)C[C@@H](C)[C@H](CN(C)S(=O)(=O)c2ccc(C)cc2)O3)cc1,-1.5,-16.1

(listing goes on)
SMILES,Vaccinia inh Venus,Vaccinia inh
COc1ccc(NC(=O)N(C)C[C@@H]2Oc3c(cccc3N(C)C)C(=O)N([C@@H](C)CO)C[C@@H]2C)cc1,6.8,12.3
COc1ccc(NC(=O)Nc2ccc3c(c2)C(=O)N([C@@H](C)CO)C[C@@H](C)[C@H](CN(C)C(=O)Nc2ccc(C(F)(F)F)cc2)O3)cc1,-15.2,-17.3
COc1cccc(CNC(=O)C[C@H]2C=C[C@H](NS(=O)(=O)c3ccccc3OC)[C@H](CO)O2)c1,7.2,2.9
O=C(O)C[C@@H]1CC[C@@H](NC(=O)CCN2CCCCC2)[C@@H](CO)O1,9.3,10.1
COCC(=O)N(C[C@@H]1N[C@@H](CO)[C@@H]1c1ccc(-c2cccnc2)cc1)C(C)C,17.6,5.9
COc1ccc(S(=O)(=O)N2CCC3(CC2)CN(Cc2ccccc2OC)[C@@H](CO)c2[nH]c4cc(OC)ccc4c23)cc1,14.9,16.1
O=C(N[C@@H]1CC[C@H](CCNC(=O)C2CCC2)O[C@H]1CO)c1ccncc1,6.2,7.7
Cc1ccccc1S(=O)(=O)N1CCCCN2[C@H](CO)[C@@H](c3ccc(-c4cccnc4)cc3)[C@@H]2C1,·,?
C[C@@H](NC(=O)C[C@@H]1CC[C@@H]2[C@H](COC[C@@H](O)CN2C(=O)Nc2cccc(F)c2)O1)c1ccccc1,-20.0,-27.5
C[C@H](CO)N1C[C@H](C)[C@@H](CN(C)C(=O)Nc2ccc3c(c2)OCO3)Oc2ccc(NC(=O)Nc3cccc4ccccc34)cc2CC1=O,9.7,8.9
O=C(C[C@@H]1CC[C@H](NC(=O)Nc2cc(F)ccc2F)[C@@H](CO)O1)Nc1ccccc1,-19.4,-21.7
O=C(Nc1cc(F)ccc1F)N1C[C@@H]2[C@H](c3ccccc31)[C@@H](CO)N2Cc1ccncc1,4.5,13.3
CC(C)CC#Cc1cnc2c(c1)C(=O)N([C@@H](C)CO)C[C@@H](C)[C@@H](CN(C)C(=O)Nc1ccccc1F)O2,-14.0,-23.8
COc1cccc(CNC(=O)[C@@H]2[C@@H](CO)[C@@H]3Cn4c(ccc(-c5ccncc5)c4=O)[C@H]2N3C(C)=O)c1,2.3,-3.2

Reformatted with each value named: part of the list above
COc1ccc(CN(C)C[C@H]2Oc3ccc(NC(=O)C4CC4)cc3CC(=O)N([C@H](C)CO)C[C@@H]2C)cc1
- Vaccinia inh Venus = 3.2
- Vaccinia inh = 6.0

C[C@@H]1CN([C@H](C)CO)C(=O)Cc2cc(NC(=O)Nc3ccccc3)ccc2O[C@@H]1CN(C)C
- Vaccinia inh Venus = 1.9
- Vaccinia inh = 10.0

COc1cccc(CNC(=O)[C@@H]2[C@@H](CO)[C@@H]3Cn4c(ccc(-c5ccncc5)c4=O)[C@H]2N3C(C)=O)c1
- Vaccinia inh Venus = 2.3
- Vaccinia inh = -3.2

COc1ccc2c3c([nH]c2c1)[C@@H](CO)N(C(C)=O)CC31CN(C(C)=O)C1
- Vaccinia inh Venus = 0.7
- Vaccinia inh = 6.0
